# HIV TAR-Tat: HIV-1 TAR-Tat binding disruption; AID 1259389; hit rate 0.6% among 100,000; z-score (no concentration beside the values); HIV-1 TAR RNA, Tat peptide displacement FRET; active compounds read high;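 also: score is relative to mean and SD of negative controls; some compounds called inactive have numbers as strong as hits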
# CDC25B-CDK2 inh: human CDC25B-CDK2/CyclinA binding inhibition; P30305+P24941; HTRF CDC25B-CDK2/CyclinA binding, anti-His/anti-Flag; active compounds read high; z-score (no concentration beside the values); hit rate 0.72% among 94,000;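 also: score is relative to mean and SD of negative controls; strong numbers were not always called active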
# Starred values were filed as active, the others as inactive; / = no result given.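 The calls were made as follows: active = z-score from 3 up in half or more of its runs; inactive = the rest.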
Molecule	HIV TAR-Tat	CDC25B-CDK2 inh
Cc1ccc2oc3c(c(=O)c2c1)C(c1cccc(Cl)c1)N(CCCn1ccnc1)C3=O (centres undefined)	0.53	0.76
Cc1cc(C)n2nc(CNS(=O)(=O)c3cccc4nsnc34)nc2n1	-0.51	0.12
CCOC(=O)c1cnc2c(ccc3ccccc32)c1NCCN1CCOCC1	/	-3.6
CCOC(=O)c1sc(NC(=O)COC(=O)CN2C(=O)C(=O)c3ccccc32)nc1C	1.1	-1.7
OC(COCc1ccc(Cl)cc1)CN1CCN(c2ccccc2)CC1 (centres undefined)	/	-0.72
CCOC(=O)c1c(C(C)(C)C)oc2ccc(OCC(=O)OC)cc12	/	-2
Cc1ccc(C2/C(=C(\O)c3ccc(Cl)cc3)C(=O)C(=O)N2c2cccnc2)cc1 (centres undefined)	1.2	-3.3
CC1CCN(c2ccc3nnc(CCC(=O)Nc4ccc5c(c4)OCCO5)n3n2)CC1	-0.02	/
CC(C)(C)OC(=O)NC(Cc1c[nH]c2ccccc12)C(=O)NC1CCCCCC1 (centres undefined)	/	-2.3
CCSc1nn(CC)c2nc3c(c(=O)n12)C(C)(C)Cc1ccccc1-3	0.18	-1.1

# The closing five entries of the section before come first, to join the parts:
Molecule	HIV TAR-Tat	CDC25B-CDK2 inh
CCOC(=O)c1c(C(C)(C)C)oc2ccc(OCC(=O)OC)cc12	/	-2
Cc1ccc(C2/C(=C(\O)c3ccc(Cl)cc3)C(=O)C(=O)N2c2cccnc2)cc1 (centres undefined)	1.2	-3.3
CC1CCN(c2ccc3nnc(CCC(=O)Nc4ccc5c(c4)OCCO5)n3n2)CC1	-0.02	/
CC(C)(C)OC(=O)NC(Cc1c[nH]c2ccccc12)C(=O)NC1CCCCCC1 (centres undefined)	/	-2.3
CCSc1nn(CC)c2nc3c(c(=O)n12)C(C)(C)Cc1ccccc1-3	0.18	-1.1
O=C(Nc1ccccc1N1CCOCC1)c1ccnc(N2CCC(O)(c3ccc(Cl)cc3)CC2)c1	/	-2.6
Cc1ncc(-c2ccc(C)c(S(=O)(=O)N(Cc3ccccc3)C(C)C)c2)o1	1.5	/
COC(=O)/C=c1\sc2nc3ccccc3n2c1=O	/	-0.69
COc1ccc(C(=O)Nc2ccc(S(=O)(=O)Nc3nccnc3OC)cc2)cc1	/	-0.52
CC(C(=O)NCc1ccco1)n1sc2ccccc2c1=O (centres undefined)	3.6*	-1.8
CCC(C)N(CCNC(=O)c1cc2c(s1)-c1ccccc1S(=O)(=O)C2)Cc1ccco1 (centres undefined)	1.7	0.82
O=c1c2cc3c(cc2nc2sc(Nc4ccc(F)c(F)c4)nn12)OCO3	2.7	1.8
CCCc1[nH]nc2c1C1(CCN(C)CC1C)C(C#N)=C(N)O2 (centres undefined)	3.4	0
Cc1nc(SCc2cc(=O)n3cc(C)sc3n2)n[nH]1	0.11	/
CSC1=N/C(=C\c2ccccc2O)C(=O)N1Cc1ccc(Cl)cc1	/	-0.18

# Reprinted from the entries so far (two entries):
Molecule	HIV TAR-Tat	CDC25B-CDK2 inh
O=C(Nc1ccccc1N1CCOCC1)c1ccnc(N2CCC(O)(c3ccc(Cl)cc3)CC2)c1	/	-2.6
Cc1ncc(-c2ccc(C)c(S(=O)(=O)N(Cc3ccccc3)C(C)C)c2)o1	1.5	/

# (cont.)
Molecule	HIV TAR-Tat	CDC25B-CDK2 inh
Fc1ccc(-c2nnc3ccc(NCCCN4CCOCC4)nn23)cc1	-0.25	-0.42
CCOCCCNC(=O)c1csc2c1CCCC2	1.3	-3
Cc1cc2n(n1)CCC(=O)N2C(C)C(=O)NCCCN1CCCCC1 (centres undefined)	2	/
O=C(O)c1ccc(Oc2ccc([N+](=O)[O-])cc2)cc1C(=O)O	/	-0.55
O=C(c1cnn(-c2ccc(F)cc2)c1-n1cccc1)N1CCCC(C(=O)N2CCCCC2)C1 (centres undefined)	0.58	/
Cc1c(C)c(C)c(C(C)O)c(C)c1C (centres undefined)	/	0.46
O=c1/c(=C/c2cc3c(cc2Br)OCO3)sc2nc3cc(Br)cnc3n12	/	-1.8
Cc1cc(C)c2[nH]c(C)c(CN3CCCCCC3)c(=O)c2c1	/	-1.1
O=C(NCCN1CCCC1)c1ccc2c(c1)NC(=O)C1CCCCN21 (centres undefined)	2	/
Cn1c(=O)c(=O)n(C)c2cc(N3CCOCC3)c(NC(=O)c3ccco3)cc21	0.76	/
CC(C)CCC1=NN(C(=O)c2ccccc2)C(O)(C(F)(F)F)C1 (centres undefined)	/	-0.53
O=S(=O)(c1ccc(-c2noc(COc3ccc(F)cc3)n2)cc1)N1CCOCC1	0.56	/
Nc1ccccc1SCc1cc(=O)n2ccsc2n1	-0.99	/
O=C(Nc1ccccc1)c1nn(-c2ccc(F)cc2)ccc1=O	0.96	-0.86
Cc1nc2ccc(F)cc2c2c1COC2	/	-1.9
C=CCn1c(SCC(=O)OCC)nc2sc3c(c2c1=O)CCCC3	/	-8
CCc1cc(C(=O)NC(C)CC)no1 (centres undefined)	0.69	0.37
CCOC(=O)c1c(NC(=O)c2nn(-c3ccc(C)cc3)ccc2=O)sc2c1CCC2	0.49	-0.33
O=C1CCSc2ccccc2N1Cc1cccc(F)c1	/	1.8
CN(C)c1ccc(NC(=O)CSc2nc3[nH]ncc3c(=O)n2-c2ccccc2)cc1	3	-2.9
O=c1[nH]nc(-c2ccc(Cl)cc2)c2c1Nc1nnnn1C2c1ccco1 (centres undefined)	0.79	-0.49
Cc1nnc2sc(SCC(=O)N3CCCc4ccccc43)nn2c1=O	0.8	/
COc1cc(C(=O)Nc2ccccc2C(=O)NCCc2ccccn2)cc(OC)c1OC	/	-1.5
CCN1C(=O)C(O)(c2c[nH]c3ccccc23)c2ccccc21 (centres undefined)	0.2	-1.1
O=C(Cn1c(=O)sc2ccccc21)NCCOc1ccccc1F	/	0.56
Cc1nc(N2CCCC2)cc(N2CCN(S(=O)(=O)c3cccc(F)c3)CC2)n1	0.99	-1.6
COc1ccc(-n2c(SCC(=O)N3CCCC3)nnc2-c2c[nH]c3ccccc23)cc1	/	-0.24
N#Cc1nc(COc2ccc(Cl)cc2)oc1NCCCn1ccnc1	-0.85	1.1
CCNc1c2c(nc3ccccc13)CC(C)(C)CC2=O	1.2	-0.42
Cc1ccc(C(=O)OCc2cc(=O)n3nc(CC(C)C)sc3n2)cc1	0.11	/
CCCn1c(=O)c2sccc2n2c(CCCC(=O)NCCC3=CCCCC3)nnc12	0.52	/
CCOC(=O)c1[nH]c(C)c(S(=O)(=O)Nc2cc(C)on2)c1C	1	/
Cc1ccc2nsnc2c1S(=O)(=O)Nc1ccc(Cl)cc1	0.66	-1.6
Fc1ccc(CNc2c3c(nc4ccccc24)CCCC3)cc1	0.23	0.29
CCC(=O)Nc1sc2c(c1C(=O)Nc1cccc3ccccc13)CCC(C)C2 (centres undefined)	/	-0.67
COCCN(Cc1cccs1)C(=O)Cn1c(=O)oc2ccccc21	-0.75	/
Clc1cccc(NCc2cn3ccccc3n2)c1	/	-0.2
Cc1cc(=O)n2nc(N3CCCC3C(=O)Nc3cccc(F)c3)sc2n1 (centres undefined)	1.1	-12
CC(=O)N1CCSc2ccc(S(=O)(=O)Nc3cc(C)cc(C)c3)cc21	2.1	/
Nc1ccc(O)c(-c2nc3ccccc3s2)c1	-1.2	-1.9
C=CCN1C(=O)C(O)(CC(=O)c2ccc(Br)cc2)c2ccccc21 (centres undefined)	/	0.3
COc1ccc([C@H]2OCC3C2CO[C@@H]3c2ccc(OC)c(OC)c2)cc1OC (some centres undefined)	2.1	/
CCN1CCN(CCNC(=O)c2ccc(CS(=O)c3ccc(Br)cc3)o2)CC1 (centres undefined)	1.8	/
Nc1ncnc2nc(N3CCOCC3)[nH]c12	-0.05	-1.6
CCc1cc2c(SCC(=O)Nc3ccc(Cl)cc3)ncnc2s1	/	-8.3
O=C1c2ccccc2C(O)N1c1cccnc1 (centres undefined)	-0.87	-1.6
CCS(=O)(=O)n1nc(-c2ccco2)nc1NCc1ccc(F)cc1	0.05	-0.59
c1ccc(SCc2cccc(CSc3ccccn3)n2)nc1	/	0.14
CCOC(=O)c1c(C)[nH]c(C)c1S(=O)(=O)N1CCN(C(=O)c2ccco2)CC1	1.7	/
COc1cc(C=C2C(=O)OC(C)(C)OC2=O)ccc1OCc1ccccc1	/	-1.6

# (next part)
Molecule	HIV TAR-Tat	CDC25B-CDK2 inh
O=C(NCCCN1CCc2ccccc2C1)c1ccc(N2CCSc3ncccc32)s1	-0.68	/
CCN(CC)c1ccc(CN2CCN(Cc3ccccc3)CC2)cc1	/	-1.7
CCc1cc2c(NC(C)CCc3ccco3)ncnc2s1 (centres undefined)	0.64	/
Cc1ccc(Cn2c(CN3CC(C)OC(C)C3)nc3c2c(=O)[nH]c(=O)n3C)cc1 (centres undefined)	-0.46	-0.89
CC(=O)Oc1ccc(C2C3=C(Nc4c2c(=O)[nH]c(=O)n4C)c2ccccc2C3=O)cc1 (centres undefined)	-0.48	-3.1
Cn1c(CCNC(=O)c2ccco2)nc2cc(NC(=O)c3ccco3)ccc21	1.2	-1.3
C=CCN(Cc1nc(-c2ccc(OC)cc2)no1)S(=O)(=O)c1ccc(Cl)cc1	1.8	-2.3
c1ccc2c(c1)ncn2Cc1nnc2sc(-c3ccncc3)nn12	0.73	-0.22
CCc1nnc2c3ccccc3nc(Nc3ccc(Cl)cc3)n12	0.33	-1.2
O=C1c2ccccc2-c2onc3c(N4CCN(CCO)CC4)cc(NC4CCCCC4)c1c23	1	-1.5
COC(=O)c1cccc(C(=O)Oc2ccc(OC)cc2)n1	0.68	-0.5
O=C(Cn1c(=O)oc2cc(S(=O)(=O)N3CCCC3)ccc21)Nc1ccc(Cl)cn1	/	-1.4
COC(=O)c1cnn(C(=O)Nc2c(C)cccc2C)c1C(OC)OC	/	-1.1
Cc1ccc(Nc2nc3ccccc3n3nnnc23)cc1	-0.68	-0.76
Fc1ccc(OCc2nn3c(-c4ccccc4Cl)nnc3s2)cc1	-0.5	-0.63
CC1CCC(NC(=O)C2CCCN(S(=O)(=O)N(C)c3ccc(F)cc3)C2)CC1 (centres undefined)	2.7	/
O=C(NCc1ccccn1)c1cc(-c2ccccc2Cl)nc2ccccc12	/	-1.6
CCOC(=O)N1CCC(Nc2c(Nc3ccc(F)cc3)c(=O)c2=O)CC1	-2.5	-1.2
O=C(c1cc(=O)c2cc(Cl)ccc2o1)N(Cc1ccccc1)C1CCS(=O)(=O)C1 (centres undefined)	0.64	1
Cc1ccc(-n2ncc3c(NCCCn4ccnc4)ncnc32)cc1Cl	0.59	/
COCc1cc(C)nc(Nc2ccc(C)cc2)c1C#N	2.6	-2.1
CN1C(=O)CSc2ccc(NC(=O)NCc3ccc(F)cc3)cc21	-0.54	1.9
Cc1ccccc1C1C2=C(CCCC2=O)Nc2nc(SCc3ccccc3)nn21 (centres undefined)	0.34	-0.18
CCSc1ncc(Cl)c(C(=O)Oc2cc(C)cc(C)c2)n1	2.9	-2.2
CCn1c(=O)n(CC)c2cc(N3CCCCC3)c(NS(=O)(=O)c3ccc(F)cc3)cc21	-1.1	/
CCc1ccc(CC2C(=O)Nc3ccccc32)cc1 (centres undefined)	0.16	-0.41
O=C(NCCn1cnc2cc(C(=O)N3CCCC3)ccc21)Nc1ccc2c(c1)OCO2	0.43	/
O=C1c2ccccc2S(=O)(=O)N1CCS(=O)(=O)c1ccc(Cl)cc1Cl	/	-0.08
CCn1c(NC(C)c2ccccc2O)nc2ccccc21 (centres undefined)	1.1	-0.73
FC(F)(F)c1ccnc(-n2ccc(-c3cccs3)n2)n1	/	0.48
CC1CCCN(S(=O)(=O)c2ccc(N3CCCCS3(=O)=O)cc2)C1 (centres undefined)	2.1	/
CCC(=O)N1CCc2cc(S(=O)(=O)NC(C(=O)NC3CCCc4ccccc43)C(C)C)ccc21 (centres undefined)	1.2	-0.47
CC12CCC(C(=O)NC1=O)C2(C)C (centres undefined)	/	-2.3
Cc1cccc2c1N(Cc1ccccc1)C(=O)C2=O	-0.08	-0.86
O=C(CN1CCN(CCCc2c[nH]c3ccc(F)cc23)CC1)N(c1ccccc1)C1CCCCC1	/	-1.8
O=C(NCc1cccnc1)NC1COc2ccccc2C1 (centres undefined)	1.3	/
CCc1ccc(-c2nc(C(N)=O)c3[nH]c(=O)n(CC4CCCO4)c3n2)cc1 (centres undefined)	1.2	/
Cc1cc(C)c2c(CC(=O)Nc3sc4c(c3C(=O)NCc3ccco3)CCC4)coc2c1	1.4	0.02
O=S(=O)(NC(c1ccc(Cl)cc1)c1nnc(-c2ccccc2)o1)c1ccc(Cl)cc1 (centres undefined)	0.02	-1.6
Cc1cc(-c2ccc(S(=O)(=O)Nc3cc(Cl)ccc3C)s2)on1	-0.11	/
CN(C)CCCNc1ncnc2c1cnn2-c1ccc(Cl)cc1	/	-1.7
COc1ccc(Nc2nc3ccc(C)cc3n3cnnc23)cc1Cl	0.78	0.91
CCOC(=O)N1CCN(Cc2nc3c(c(=O)[nH]c(=O)n3C)n2Cc2cc(C)ccc2C)CC1	2.1	-0.97
O=C(c1cc2c(Cl)nc3ccccc3c2s1)N1CCOCC1	/	-1.2
C=CCNc1sc(S(=O)(=O)CC)nc1S(=O)(=O)c1ccc(C)cc1	-1.1	-1.7
N/C(COc1ccc([N+](=O)[O-])cc1)=N\OC(=O)CCn1cc(C(F)(F)F)ccc1=O	/	-1.4
Clc1ccc2nc(NCCc3ccccc3)c3nnnn3c2c1	-0.43	-2.4

# Retrieved one by one from above:
Molecule	HIV TAR-Tat	CDC25B-CDK2 inh
CCOC(=O)N1CCN(Cc2nc3c(c(=O)[nH]c(=O)n3C)n2Cc2cc(C)ccc2C)CC1	2.1	-0.97
N/C(COc1ccc([N+](=O)[O-])cc1)=N\OC(=O)CCn1cc(C(F)(F)F)ccc1=O	/	-1.4

# Assay outcomes deposited in PubChem BioAssay by Center for Chemical Genomics, University of Michigan.

# Rows were taken by chance (roughly 0.87% active in at least one column).
